Screens: PubChem BioAssay, several laboratories
T cruzi repl = inhibitors of intracellular T. cruzi growth, primary screen, luminescence, NIH3T3 host cells | T. cruzi beta-gal in NIH3T3, 90 h | inhibition, % (test concentration not listed) | 300,000 compounds, 1.4% hits;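 active = mean inhibition across valid replicates above about 55%, limit read from the data; inconclusive = mean below that limit but half or more replicates reach it; inactive = mean below it, under half of replicates reach it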;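 note: signal also drops with host cell toxicity which is not excluded here; 0% = plate median of DMSO wells and 100% = zero luminescence signal; higher percent means less beta-gal luminescence so fewer parasites; stock transfer was 50 nL into about 50 µL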
MLL AF4-AF9 inh = inhibitors of AF4 peptide binding to AF9, primary screen, biochemical, AlphaScreen, biotin-AF4 peptide, FLAG-AF9, single point; Protein AF-9 (Homo sapiens), P42568; inhibition, % at 10 µM; 350,000 compounds, 0.47% hits; AID 651704, 2012;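 active = every replicate reaching a set inhibition limit, whatever the replicate mean, cut at about 25% in these data; inconclusive = mean inhibition reaches that limit but some replicates miss it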;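 note: 0% = plate neutral control median and 100% = total signal loss; the record names both 10 and 1 µM as test concentration; the first replicate is given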
Beta apoptosis = inhibitors of cytokine-induced beta cell apoptosis, primary screen, luminescence; INS-1E cytokine-induced death, ATP luminescence, 48 h; percent of positive-control rescue, neutral wells zero; protection from apoptosis, % (test concentration not listed); 300,000 compounds, 0.8% hits; AID 435005, 2010;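 active = all replicates at 75% or more, or half of them and the mean; inconclusive = half reach 75% but not the mean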;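 note: 0% = cytokine-treated negative control wells and 100% = positive control rescue; higher means more ATP so stronger rescue from cytokine killing; wells of about 40 µL received 100 nL stock; the first replicate is given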
LANA-H2B inh = blockers of LANA interaction with H2A/H2B – biochemical, FP readout, HTS, primary screen. 320,000 compounds, 0.6% hits. Protein LANA1 (Human herpesvirus 8 type P (isolate GK18)), Q9QR71. inhibition, % (test concentration not listed). AID 2629, 2010. cell-free LANA-H2A/H2B peptide, fluorescence polarization; in the data active = inhibition mostly above about 10%, no sharp cut-off; inactive = mostly below about 6.7%;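 note: stock transfer was 7.5 nL into about 10 µL; 0% = median of vehicle wells and 100% = median of positive control wells; one replicate is shown; the record names a cut of 25% in any replicate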
Target sequence (Q9QR71 whole entry, looked up): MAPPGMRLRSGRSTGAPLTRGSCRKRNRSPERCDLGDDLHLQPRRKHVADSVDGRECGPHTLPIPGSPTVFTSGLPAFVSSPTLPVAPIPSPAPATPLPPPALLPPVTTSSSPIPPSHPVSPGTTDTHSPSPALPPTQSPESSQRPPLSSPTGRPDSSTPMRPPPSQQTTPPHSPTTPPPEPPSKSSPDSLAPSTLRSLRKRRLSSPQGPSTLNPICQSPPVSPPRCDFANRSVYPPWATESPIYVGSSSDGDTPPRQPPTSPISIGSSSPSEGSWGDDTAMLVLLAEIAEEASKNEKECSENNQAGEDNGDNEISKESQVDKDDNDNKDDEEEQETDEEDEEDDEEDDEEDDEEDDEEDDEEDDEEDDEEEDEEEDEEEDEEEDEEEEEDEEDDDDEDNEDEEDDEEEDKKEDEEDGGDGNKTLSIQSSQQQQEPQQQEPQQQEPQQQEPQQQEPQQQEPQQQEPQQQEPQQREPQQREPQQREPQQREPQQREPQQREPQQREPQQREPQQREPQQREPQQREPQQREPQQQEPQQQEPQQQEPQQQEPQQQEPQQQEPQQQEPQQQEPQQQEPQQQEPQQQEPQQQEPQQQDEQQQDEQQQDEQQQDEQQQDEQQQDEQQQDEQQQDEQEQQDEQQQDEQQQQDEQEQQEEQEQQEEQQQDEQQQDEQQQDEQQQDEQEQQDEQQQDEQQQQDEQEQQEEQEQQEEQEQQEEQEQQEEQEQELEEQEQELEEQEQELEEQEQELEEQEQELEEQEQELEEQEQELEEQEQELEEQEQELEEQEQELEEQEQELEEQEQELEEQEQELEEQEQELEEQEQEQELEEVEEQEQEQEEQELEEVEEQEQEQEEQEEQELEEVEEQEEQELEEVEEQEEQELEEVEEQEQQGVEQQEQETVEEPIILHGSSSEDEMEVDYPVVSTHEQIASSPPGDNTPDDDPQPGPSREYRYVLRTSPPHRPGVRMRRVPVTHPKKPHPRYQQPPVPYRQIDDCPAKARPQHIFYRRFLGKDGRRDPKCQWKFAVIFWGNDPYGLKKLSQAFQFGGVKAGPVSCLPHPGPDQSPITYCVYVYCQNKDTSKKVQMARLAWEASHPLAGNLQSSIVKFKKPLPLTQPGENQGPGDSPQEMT
A1 inh = caspase 3/7 activation in MEF A1-2A-BIM cells, primary screen, A1 inhibitor project, cell-based, luminescence, HTS; 330,000 compounds, 0.066% hits; Caspase-Glo 3/7 luminescence, 3 h; percent of clofoctol response, vehicle zero; caspase activation, % (no concentration beside the values);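 active = over half of replicate activation scores above 10%, or exactly half above 10 with the replicate mean above 10; inconclusive = replicate mean below 10 yet half the replicates above 10; inactive = over half of replicates below 10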;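 note: wells of about 30 µL received 50 nL stock; many hits fall short of the cut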
Calb FLC = C. albicans growth inhibition with fluconazole, primary screen, CaCi-2 strain, Alamar Blue fluorescence; 300,000 compounds, 0.57% hits; growth inhibition, % (concentration not given with the values); C. albicans CaCi-2 (fluconazole-resistant clinical isolate) + fluconazole, 48 h;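 active = most replicates above 75%; inconclusive = exactly half above 75%; inactive = most below 75%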;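 note: all wells also contain fluconazole at 8 µg/ml as a sub-toxic cotreatment; 0% = median of DMSO wells and 100% = median of geldanamycin control wells; wells of about 8 µL received 7.5 nL stock; the first replicate is given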
RanGTP-Imp inh = inhibitors of RanGTP-importin-beta interaction, primary screen, biochemical, FRET, CFP-Ran, YFP-importin-beta, homogeneous; cell-free CFP-Ran/YFP-importin-beta FRET ratio; inhibition, % (concentration not given with the values); 300,000 compounds, 1.1% hits; Ran GTPase (GTP-bound) - importin-beta complex;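 active = most replicates above 15%; inconclusive = exactly half above 15%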;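 note: 0% = DMSO wells and 100% = Ran loaded with GDP instead of GTP; wells of about 40 µL received 100 nL stock; the first replicate is given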
Vif TR-FRET = inhibitors of Vif binding to APOBEC3G peptide, primary screen, biochemical, TR-FRET, GST-Vif 1-94, biotin-A3G peptide, dose response retest (AID 1117319). Virion infectivity factor (Human immunodeficiency virus type 1 group M subtype B (isolate …. TR-FRET GST-Vif / biotin-A3G peptide binding; higher % means a stronger effect; test concentration not given here; strong numbers were not always called active. inhibition, %, or IC50 in µM where a hit was titrated. 260,000 compounds, 0.57% hits;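 active = above the screen mean plus three standard deviations and confirmed in dose response; inconclusive = results disagree or hit not tested in dose response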;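 note: Vif residues 1-94 fused to GST binding biotinylated APOBEC3G peptide 110-148; 0% = full assay without inhibitor and 100% = GST in place of GST-Vif; retest series ran down from 100 µM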
* = called active by the depositor; ? = inconclusive; . = not tested or not shown. The order is random; overall some 4.3% were active at least once.

SMILES | T cruzi repl | MLL AF4-AF9 inh | Beta apoptosis | LANA-H2B inh | A1 inh | Calb FLC | RanGTP-Imp inh | Vif TR-FRET
Cc1ccc(S(=O)(=O)N2CCCCC2)cc1NC(=O)C1CC(=O)N(Cc2ccco2)C1 (stereo not drawn) | . | -5.6 | -5 | 3.8 | -0.2 | . | . | .
CC(C)(C)NC(=O)CCSc1nnc(-c2ccco2)o1 | -5 | -0.9 | -7 | 1.3 | 1.0 | 10 | -0.1 | -8%
COc1cccc(C(=O)NC2CCN(C(=O)N3c4ccccc4Sc4ccccc43)CC2)c1 | 70* | 0.0 | 12 | -1.1 | 1.6 | 17 | -2.4 | -1%
O=S(=O)(Nc1ccc(F)cc1)c1ccc(NS(=O)(=O)c2cccs2)cc1 | 5 | -4.2 | 1 | 0.8 | 0.6 | 0 | 0.2 | .
O=C(O)c1ccc(/C=N/N2CCN(Cc3ccc(Cl)cc3)CC2)cc1 | -7 | 2.2 | . | 1.3 | -0.7 | -23 | 0.2 | 26%
CN(Cc1ccccc1)S(=O)(=O)c1ccc2[nH]c(=O)ccc2c1 | -5 | -2.3 | -1 | -1.7 | -0.1 | 0 | -2.9 | .
COC(=O)c1cccc(NC(=O)c2ccc(OC)c(Cl)c2)c1 | 5 | -1.2 | -6 | 2.1 | -1.0 | -2 | -0.1 | -4%
Cc1[nH]c(=O)[nH]c(=S)c1C(=O)Nc1ccc(Cl)c(Cl)c1 | -5 | -5.5 | 3 | -2.3 | -4.1 | -9 | 2.0 | .
NC(=O)c1ccc(Oc2cccc3cccnc23)c([N+](=O)[O-])c1 | -5 | -1.2 | -4 | 4.3 | 0.7 | -35 | -1.2 | 13%
COc1ccc(NS(=O)(=O)c2ccc(N3C(=O)CCC3=O)cc2)cc1 | 0 | . | . | 1.7 | 0.4 | -19 | 5.6 | 10%
Cc1cc2c(s1)c1cnn(Cc3ccccc3F)c(=O)c1n2C | 4 | . | 27 | 2.8 | 0.6 | 4 | 3.6 | ?
Cc1ccc(C)c(NC(=O)C2CCCN2/C=C/C(=O)C(F)(F)F)c1 (stereo not drawn) | 7 | . | 7 | 6.8 | 0.5 | -3 | 2.3 | .
O=C(Nc1ccccc1)C1CCCN(C(=O)c2ccc(F)cc2)C1 (stereo not drawn) | . | -1.2 | 0 | -28 | 0.9 | . | . | .
Cc1cc(NC(=O)CSc2nc(C(C)C)nc3ccccc23)no1 | -9 | . | -6 | 3.8 | -0.6 | 1 | 3.0 | -2%
C=CCNC(=S)N1CCC(Cc2ccccc2)CC1 | -6 | -4.8 | 4 | -5.7 | 0.2 | -5 | 1.6 | .
Cc1ccc(C)c(Oc2coc3cc(OC(=O)c4cccs4)ccc3c2=O)c1 | 5 | . | 2 | 2.4 | 0.2 | 11 | 1.1 | 0%
COc1ccccc1NC(=O)Nc1nc(CC(=O)Nc2ccc(F)c(F)c2)cs1 | -5 | -21 | 7 | -0.9 | 0.9 | -4 | -2.1 | 3%
CN(CC(=O)Nc1cccc(F)c1)C(=O)c1cn(-c2ccccc2)nc1-c1cccs1 | 28 | -1.5 | 3 | 4.1 | 2.0 | -19 | 3.0 | -5%
c1ccc(-n2cnnc2SCc2cn3ccccc3n2)cc1 | -16 | . | -4 | 0.5 | 0.7 | 6 | 6.7 | -2%
CCCOc1cccc(OCC(=O)Nc2nc3ccccc3[nH]2)c1 | -5 | 0.1 | -2 | -0.2 | 0.2 | -4 | -0.2 | -6%
Cc1ccnc(SCc2ccc(C(=O)O)cc2)n1 | -8 | -3.2 | -3 | -0.1 | -1.7 | 9 | 7.7 | -6%
Cc1noc(C)c1CCC(=O)O | -17 | -0.4 | -8 | 0.6 | -0.3 | -28 | 5.5 | 1%
COCCn1c(N)c(N(Cc2ccccc2)C(=O)c2cc(=O)[nH]c3ccccc23)c(=O)[nH]c1=O | . | 0.6 | 3 | 0.2 | -0.2 | . | . | .
O=C(NN1C(=O)c2ccccc2NC1c1ccoc1)c1ccccc1 (stereo not drawn) | -6 | 0.5 | -1 | -1.5 | 0.6 | 0 | 7.9 | -4%
Cc1ccc(C(=O)Nc2nnc(SCC(=O)N3CCCc4ccccc43)s2)cc1 | -12 | -4.0 | -2 | 1.1 | -3.9 | -1 | 39* | .
O=C(NCC(c1cccs1)N1CCOCC1)c1ccc(Cl)c(S(=O)(=O)N2CCOCC2)c1 (stereo not drawn) | 4 | ? | -2 | 0.9 | 0.1 | -3 | -1.9 | .
COc1ccc(/C=N/NC(=O)C(C)n2cnc3ccccc3c2=O)cc1OC (stereo not drawn) | -21 | 4.0 | 7 | -1.2 | -0.6 | 0 | 4.2 | 3%
CCN(CC)CCn1c(NC(=O)c2ccc(C)cc2)nc2ccccc21 | 32 | -1.5 | 7 | 4.4 | 0.3 | 2 | -0.2 | 2%
CC(=O)NC1=NN(C(C)=O)C2(S1)C(=O)N(C(C)=O)c1ccc(C)cc12 (stereo not drawn) | -20 | 0.8 | 1 | 1.0 | -0.4 | -24 | 2.1 | -5%
O=C(CSc1nnc(Cc2cc(=O)[nH]c(=O)[nH]2)n1-c1ccc(F)cc1)NC1CCCC1 | -13 | -0.3 | -3 | 1.5 | 0.6 | 10 | 0.4 | -6%
FC(F)Oc1ccc(NC(=S)NCc2ccccc2)cc1 | -11 | 3.3 | -10 | -0.2 | 0.1 | 6 | 3.2 | .
O=C(c1cc([N+](=O)[O-])ccc1Cl)N1CCN(c2ccc(F)cc2)CC1 | 4 | -1.9 | -1 | 7.1 | 0.4 | -36 | -0.7 | 18%
O=S(=O)(Cc1ccc(Cl)cc1)NCC1CCCO1 (stereo not drawn) | 4 | . | -3 | 6.5 | 0.3 | 30 | -2.4 | 7%
CCC(C)NC(=O)CSc1nc2ccccc2c(=O)n1CCCN1CCCCC1 (stereo not drawn) | -16 | 0.4 | -3 | 1.6 | -0.3 | -3 | -0.7 | .
Cc1ccc(C)c(N2CCN(S(=O)(=O)c3ccc4c(c3)NC(=O)CS4)CC2)c1 | 4 | 2.6 | 6 | 2.5 | 0.3 | -15 | -2.9 | 15%
Cc1ccc(C)c(NC(=S)NC(NC(=O)/C=C/c2ccccc2)C(Cl)(Cl)Cl)c1 (stereo not drawn) | 18 | . | 32 | 4.2 | 0.3 | -8 | -5.5 | 15%
CN1CCOCCOCCN(C)C(=O)N2CCOCCOCCN(CCOCC2)C1=O | 1 | . | -3 | -2.0 | 1.0 | -9 | 1.7 | -3%
COc1cccc(SCc2noc(C(=O)NCc3ccccc3)c2C(=O)NCc2ccccc2)c1 | -5 | 0.9 | 0 | -12 | 1.0 | -17 | 1.1 | -3%
CC(C)C[C@H](NC(=O)NCCc1ccc(Cl)cc1)C(=O)O | -11 | . | -1 | -2.0 | 0.2 | 0 | 3.8 | 21%
CCN(CC)S(=O)(=O)c1ccc(N/N=C/c2ccccc2OCC(=O)O)c([N+](=O)[O-])c1 | -4 | 6.4 | -3 | -7.0 | -0.8 | 5 | 0.7 | 8%

Of the compounds above, 3 contain a nitro group on carbon.
SMILES | T cruzi repl | MLL AF4-AF9 inh | Beta apoptosis | LANA-H2B inh | A1 inh | Calb FLC | RanGTP-Imp inh | Vif TR-FRET
NC(=O)c1ccc(Oc2cccc3cccnc23)c([N+](=O)[O-])c1 | -5 | -1.2 | -4 | 4.3 | 0.7 | -35 | -1.2 | 13%
O=C(c1cc([N+](=O)[O-])ccc1Cl)N1CCN(c2ccc(F)cc2)CC1 | 4 | -1.9 | -1 | 7.1 | 0.4 | -36 | -0.7 | 18%
CCN(CC)S(=O)(=O)c1ccc(N/N=C/c2ccccc2OCC(=O)O)c([N+](=O)[O-])c1 | -4 | 6.4 | -3 | -7.0 | -0.8 | 5 | 0.7 | 8%

Carrying on.
SMILES | T cruzi repl | MLL AF4-AF9 inh | Beta apoptosis | LANA-H2B inh | A1 inh | Calb FLC | RanGTP-Imp inh | Vif TR-FRET
CC(C)=C1C2CCC1C1C(=O)N(c3ccc(C)c(C)c3)C(=O)C21 (stereo not drawn) | 2 | 1.0 | . | -1.1 | 0.2 | 2 | 6.9 | .
CCN1C(=O)[C@@H]2[C@H](C1=O)[C@@H]1C(=O)Nc3ccccc3C(=O)N1[C@@H]2c1ccc(OC)cc1 | -28 | -2.4 | -5 | -4.0 | 2.4 | 3 | -3.8 | .
CC(C)CNC(=O)NC(=O)COc1c(F)c(F)cc(F)c1F | -13 | . | -8 | 1.1 | 0.2 | -3 | -1.4 | 4%
O=C(CN(C(=O)c1ccccc1Cl)N1C(=O)CCCC1=O)c1ccc(Cl)cc1 | ? | 1.1 | 0 | -0.4 | 1.5 | 1 | -1.9 | .
C(=N\N1CCN(c2ccccn2)CC1)/C1=C(N2CCOCC2)C(=C/c2ccccc2)/CC1 | -15 | 0.3 | 12 | -5.5 | 0.0 | 32 | 0.7 | 1%
CCCC(c1nnnn1C(C)(C)CC)N1CCN(C2CCCC2)CC1 (stereo not drawn) | . | . | -4 | 0.8 | 1.4 | . | . | 3%
COC(=O)C1C(c2ccc(OC)cc2)NC(=O)NC1(O)C(F)(F)Cl (stereo not drawn) | 0 | -2.0 | -4 | -3.7 | 0.8 | 3 | 6.7 | .
CC(=O)c1c(C)[nH]c(C(=O)OCc2ccccc2F)c1C | 3 | -10.0 | -8 | 5.5 | -0.7 | -4 | 2.1 | 2%
CCOC(=O)C1=C(c2ccccc2)Nc2nc(C)nn2C1c1cccc(OC)c1OC (stereo not drawn) | 0 | . | 0 | 2.9 | -0.6 | 16 | -0.3 | -2%
CCCC(=O)N(c1ccc2oc(C)c(C(C)=O)c2c1)S(=O)(=O)c1ccc(C(=O)O)cc1 | -1 | 2.4 | -2 | -2.6 | 0.1 | 38 | -0.5 | .
CN1CCN(C(=O)C(C(=O)c2ccc(F)cc2)n2ccccc2=O)CC1 (stereo not drawn) | 2 | . | 0 | -5.6 | -0.1 | 9 | 0.3 | 1%
CC(C)(C)C(=O)Nc1ccc(N2CCCC2)cc1 | 34 | . | 10 | -0.5 | -1.1 | -9 | 1.0 | 16%
O=C(CNC(=O)c1ccccc1Cl)N/N=C/c1ccc([N+](=O)[O-])s1 | 50 | -2.2 | 72 | -8.7 | 0.8 | 21 | -1.5 | 2%
O=C1Nc2ccccc2SC1c1ccccc1 (stereo not drawn) | -17 | 1.4 | -7 | 1.9 | -0.6 | 2 | 2.0 | 10%
Cc1ccc2[nH]c(=O)c(CN(Cc3ccco3)C(=O)CN3CCCC(C)C3)cc2c1 (stereo not drawn) | 6 | 2.8 | 1 | -0.2 | -0.3 | 2 | ? | 9%
O=C(O)c1ccc(-n2nc(C(F)(F)F)c3c2-c2ccoc2CC3)cc1 | -5 | . | -3 | -8.1 | 0.0 | 16 | ? | 59µM*
